# Assay outcomes as filed in PubChem.
# BJeLR viability: kills HRASV12-expressing BJeLR cells; inhibition, % (concentration not given with the values); 0.17% of 300,000 active; BJeLR (HRASV12) viability, CellTiter-Glo ATP luminescence, 48 h; reference of the scale not given here;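 active = replicate mean above 50%; inconclusive = above 50% but judged a plate artefact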;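 also: 50 nL library stock added to about 25 µL; numbers are from one replicate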
# Mtb hypoxia inh: reduces hypoxia-regulated biosensor signal in M. tuberculosis. M. tuberculosis hypoxia-regulated fluorescent reporter, fluorescence. fluorescence inhibition, % (concentration not given with the values). 0.1% of 300,000 active. AID 1159583;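 active = 35 to 45% if threefold the growth effect, above 45% if 1.5-fold the growth effect; inactive = the rest, general growth blockers included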;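 also: wells of about 50 µL received 100 nL stock; 0% = vehicle wells and 100% = reference inhibitor wells; whole bacteria with a GFP reporter of the hypoxia response; strong numbers were not always called active; many hits fall short of the cut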
# Autofluor counter: counter-screen for toxin protease inhibitors: compound fluorescence; fluorescence intensity (no concentration beside the values); AID 624483; 3.1% of 360,000 active; compound autofluorescence counterscreen, microsphere flow cytometry; stronger effect = higher value;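 active = at least 3 SD above the mean of all compounds, about 16000 in these data; inconclusive = too few beads counted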;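 also: 100 nL of 1 mM stock went into each well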
# Sa RN4220 lethal: kills Staphylococcus aureus RN4220; AID 1259311; inhibition, % (no concentration beside the values); S. aureus RN4220 growth, OD600, 16 h; 0.33% of 330,000 active;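 active = z-score of -3 or lower and OD600 up to 0.18 on both plates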;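 also: plate controls were untreated cells for no effect and reference antibiotic for full effect; stock transfer was 100 nL into about 80 µL; one replicate is shown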
# PrP 5UTR inh: suppresses PrP 5' UTR mRNA reporter expression. cell-based PrP 5' UTR mRNA reporter, plate reader. inhibition, % (no concentration beside the values). 0.35% of 340,000 active;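 active = every replicate at 50% or more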;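 also: 0 = median of the neutral control wells; tested in H4 reporter cells; numbers are from one replicate; inactives centre near -14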
# Sa ugtP lethal: kills S. aureus RN4220 lacking UgtP; S. aureus RN4220 ugtP deletion, OD600 growth, 16 h; some inactives read as strong as hits; growth inhibition, % (test concentration not listed); 0.54% of 330,000 active;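 active = z-score under -3 and OD600 up to 0.15 on both plates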;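 also: plate controls were untreated wells for no effect and antibiotic for full effect; wells of about 80 µL received 100 nL stock; the first replicate is given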
# Mtb hypoxia inh growth: recorded beside Mtb hypoxia inh, whose call it bears; growth inhibition, %; measured here: M. tuberculosis growth (absorbance);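 0% = vehicle and 100% = reference antibiotic; read after six days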
# * = called active by the depositor; ? = inconclusive; / = no result given.
SMILES,BJeLR viability,Mtb hypoxia inh,Mtb hypoxia inh growth,Autofluor counter,Sa RN4220 lethal,PrP 5UTR inh,Sa ugtP lethal
Cc1ccc(CNCc2cc(Cl)ccc2O)cc1,/,15,20,4356,6.4,-35,-16
Cc1c(NC(=S)NC(=O)C(c2ccccc2)c2ccccc2)cccc1C(=O)O,-18,-17,-9,4233,-3.1,-28,-1
O=C(Cn1nnc(-c2ccccc2)n1)NC1CCS(=O)(=O)C1 (configuration not stated),1,-9,0,?,-1.1,-11,0
Cc1cc(NC(=O)CSc2ccc3nnc(-c4cccc(F)c4)n3n2)no1,-9,-3,-5,6100,0.5,-2,10
O=C(Nc1nnc(-c2ccccc2)s1)c1cc(S(=O)(=O)N2CCOCC2)c(Cl)cc1Cl,1,0,-3,23535*,1.1,-18,-3
O=C(Nc1cccc(NS(=O)(=O)c2ccc(S(=O)(=O)NC3CC3)cc2)c1)c1ccccn1,-4,-2,6,4279,-4.6,-16,8
CN1CCC(=O)N(CCSc2ccc(Br)cc2)CC1,12,6,4,4014,5.5,-24,2
COc1ccc(CCNC(=O)CCn2cccc2)cc1OC,4,-4,-3,2521,20,-8,18
COc1ccc(-n2nc(C(=O)NCC(=O)NCCCN3CCN(C)CC3)c3ccccc3c2=O)cc1OC,-2,-3,2,3684,2.4,-15,9
CC(=NOCC(=O)OC(C)C(=O)Nc1ccc(C(N)=O)cc1)c1ccc2c(c1)OCO2 (configuration not stated),/,8,1,/,-1.3,/,4
Cc1ccc2c(c1)-c1nc3ccccc3cc1C2=NC1CCCCC1,/,1,2,2433,1.1,-90,3
COc1ccc(CN(C(=O)c2cccs2)c2ccccc2C(=O)O)cc1,5,9,0,4901,0.0,-7,6
COc1cc(C2C=C(c3cccs3)Nc3ncnn32)cc(OC)c1OC (configuration not stated),/,-16,9,4218,0.9,-4,13
CC(C)(C)NC(=O)CN(C(=O)CCC(=O)Nc1nccs1)c1ccc(F)cc1,-9,0,14,3301,3.9,-13,5
CN1C(=S)SC2CS(=O)(=O)CC21 (configuration not stated),6,4,-5,5572,1.5,/,6

# An excerpt of these results, field by field.
compound: Cc1c(NC(=S)NC(=O)C(c2ccccc2)c2ccccc2)cccc1C(=O)O
  BJeLR viability: -18	Mtb hypoxia inh: -17	Mtb hypoxia inh growth: -9	Autofluor counter: 4233	Sa RN4220 lethal: -3.1	PrP 5UTR inh: -28	Sa ugtP lethal: -1

compound: O=C(Cn1nnc(-c2ccccc2)n1)NC1CCS(=O)(=O)C1 (configuration not stated)
  BJeLR viability: 1	Mtb hypoxia inh: -9	Mtb hypoxia inh growth: 0	Autofluor counter: ?	Sa RN4220 lethal: -1.1	PrP 5UTR inh: -11	Sa ugtP lethal: 0

# 12 entries already listed, arranged by heavy-atom count, low to high.
SMILES,BJeLR viability,Mtb hypoxia inh,Mtb hypoxia inh growth,Autofluor counter,Sa RN4220 lethal,PrP 5UTR inh,Sa ugtP lethal
CN1C(=S)SC2CS(=O)(=O)CC21 (configuration not stated),6,4,-5,5572,1.5,/,6
Cc1ccc(CNCc2cc(Cl)ccc2O)cc1,/,15,20,4356,6.4,-35,-16
CN1CCC(=O)N(CCSc2ccc(Br)cc2)CC1,12,6,4,4014,5.5,-24,2
O=C(Cn1nnc(-c2ccccc2)n1)NC1CCS(=O)(=O)C1 (configuration not stated),1,-9,0,?,-1.1,-11,0
Cc1ccc2c(c1)-c1nc3ccccc3cc1C2=NC1CCCCC1,/,1,2,2433,1.1,-90,3
COc1ccc(CN(C(=O)c2cccs2)c2ccccc2C(=O)O)cc1,5,9,0,4901,0.0,-7,6
Cc1cc(NC(=O)CSc2ccc3nnc(-c4cccc(F)c4)n3n2)no1,-9,-3,-5,6100,0.5,-2,10
CC(C)(C)NC(=O)CN(C(=O)CCC(=O)Nc1nccs1)c1ccc(F)cc1,-9,0,14,3301,3.9,-13,5
Cc1c(NC(=S)NC(=O)C(c2ccccc2)c2ccccc2)cccc1C(=O)O,-18,-17,-9,4233,-3.1,-28,-1
CC(=NOCC(=O)OC(C)C(=O)Nc1ccc(C(N)=O)cc1)c1ccc2c(c1)OCO2 (configuration not stated),/,8,1,/,-1.3,/,4
O=C(Nc1cccc(NS(=O)(=O)c2ccc(S(=O)(=O)NC3CC3)cc2)c1)c1ccccn1,-4,-2,6,4279,-4.6,-16,8
COc1ccc(-n2nc(C(=O)NCC(=O)NCCCN3CCN(C)CC3)c3ccccc3c2=O)cc1OC,-2,-3,2,3684,2.4,-15,9

# Next section.
SMILES,BJeLR viability,Mtb hypoxia inh,Mtb hypoxia inh growth,Autofluor counter,Sa RN4220 lethal,PrP 5UTR inh,Sa ugtP lethal
COc1ccc(NCC(=O)Nc2cc(S(=O)(=O)N3CCOCC3)ccc2N2CCOCC2)c(OC)c1,5,3,2,3906,1.5,-26,0
O=C(CSc1nccc(=O)[nH]1)NCc1ccc(Cl)cc1,2,-1,-3,3429,-0.2,-15,5
O=C1CN(C(=O)CNC(=O)c2ccccc2Cl)c2ccccc2N1,7,2,-5,4571,4.7,-18,3
COC(=O)c1nn(-c2ccc(OC)cc2)c(=O)cc1Oc1ccccc1,8,8,0,21753*,1.5,-39,1
CCOC(=O)C(C)Oc1ccc(=O)n(-c2ccccc2)n1 (configuration not stated),-4,7,3,11176,3.5,-24,0
CN(C)c1ccc(N=Nc2ccc(S(N)(=O)=O)cc2)cc1,0,4,0,4994,2.9,-124,0
CCOC(=O)C1=C(CNCc2ccccc2Cl)NC(=O)NC1c1cccc([N+](=O)[O-])c1 (configuration not stated),2,3,4,4622,3.9,15,1
COc1ccc(C[C@@H]2CN3C(=NC[C@@H]3C)N2C[C@H](C)NC(=O)CCC2CCCCC2)cc1,-12,/,/,4452,/,-21,/
Cn1c(=O)c(/C(N)=N/OC(=O)c2ccccc2)cn(-c2ccccc2)c1=O,-12,14,2,6124,2.4,-20,14
O=S(=O)(Nc1nnc(C2CCCCC2)s1)c1ccc(F)cc1,3,5,4,3758,3.8,-11,-10
O=c1c2ccccc2nnn1COc1ccc(Cl)cc1Br,-4,7,-1,3286,6.7,-9,6
COc1ccc(NC(=O)Cn2c(CCC(=O)O)ccc2-c2ccccc2)cc1,4,-6,11,4164,1.4,-14,2
O=C(NCCCn1ccnc1)c1ccc(-c2cccc(Cl)c2Cl)o1,/,-19,-4,9081,-1.4,-11,-9
CC(C)=CCN1CCN(Cc2ccoc2)CC1CCO (configuration not stated),4,-3,0,4265,4.8,-74,3
O=C(c1ccoc1)N1CCCC(Nc2ccc(F)c(F)c2)C1 (configuration not stated),2,19,5,5721,1.4,-24,8
Cc1ccc(NC(=O)CCC(=O)NN=Cc2cccs2)cc1,/,4,-17,/,0.9,/,-1
Cc1cccc(CS(=O)(=O)c2ncc(Cl)c(C(=O)NCc3ccccc3)n2)c1,21,-1,-1,5241,32,-1,59
COC(=O)c1ccc(-n2c(C)cc(C(=O)CCl)c2C)cc1,5,5,11,4335,13,-13,-11
CCC(C)(C)NC(=O)C(c1ccc(OC)cc1)N(C(=O)CCC(=O)Nc1cc(C)on1)C(C)(C)C (configuration not stated),-7,-2,4,3567,2.0,-9,-2
COc1ccc(C(=O)NC2=NCCS2)cc1S(=O)(=O)N1CCCCC1C (configuration not stated),-4,-1,-3,3468,8.4,-24,12
Cc1ccc(N2C(=O)N3[C@H](c4ccc(Br)cc4)[C@@H]4C(=O)N(C(C)(C)C)C(=O)[C@@H]4[C@]3(C)C2=O)cc1,-2,/,/,3622,/,0,/
Cc1ccc(NC(=O)CSc2nc3ccccc3c(=O)[nH]2)cc1[N+](=O)[O-],/,2,-2,3846,4.8,-19,-5
CCOC(=O)C(=O)Cc1cccnn1,/,5,8,3647,6.8,-12,-10
CCOc1ccc(NC(=O)CN(C)CC(=O)Nc2ccc(F)c(F)c2F)cc1OCC,-1,17,4,4464,14,-8,7
CC(C(=O)N1CCc2ccccc21)N(C)CC(=O)Nc1cccc(F)c1 (configuration not stated),/,5,9,3763,0.4,-1,5
CC(C(=O)N1CCCC1)N1CCN(c2ccccc2O)CC1 (configuration not stated),-9,7,2,4818,-6.4,-17,5
CC(C)C(=O)N1CCN(c2ccccc2NC(=S)NC(=O)Cc2ccccc2)CC1,12,0,6,5767,0.2,-11,5
CCCN(C(=O)c1nc2nccc(C)n2n1)c1c(N)n(Cc2ccccc2)c(=O)[nH]c1=O,/,-2,1,9033,-1.0,-10,2
CCCCCC(=O)Nc1c2c(nc3ccccc13)CCC2,0,9,0,3982,5.3,-25,2
CCN(Cc1ccccc1)C(=O)c1[nH]c2ccc(OC)cc2c1C,8,6,10,3359,8.4,-1,7
O=C(CSc1nc(Nc2ccccc2)nc(N2CCOCC2)n1)N1CCc2ccccc21,-5,-8,-2,3325,13,-8,-2
CC(C)C(Nc1ccc(S(=O)(=O)N2CCOCC2)cc1[N+](=O)[O-])C(=O)OCC(N)=O (configuration not stated),/,13,5,/,9.4,/,0
CC1(C)CC(=O)C2=C(C1)Nc1ccccc1S2,-4,/,/,3623,/,-19,/
COc1ccc(/C=C/C(=O)c2c(C)nc3ccccn23)cc1,1,-17,-15,5787,3.9,-43,-1
CCOc1ccccc1C(=O)NC(C(=O)NCc1ccc(F)cc1)C(C)C (configuration not stated),-3,5,2,3245,4.5,-24,3
O=C(Nc1ccc2ccccc2c1)c1ccccc1[N+](=O)[O-],/,22,13,4128,4.8,-42,2
COc1cc(NC(=O)c2nnn(Cc3ccc(SC)cc3)c2N)cc(OC)c1,0,/,/,5582,3.5,-35,10
O=C1c2ccccc2C(O)(c2ncc[nH]2)N1CCc1ccccc1 (configuration not stated),-11,5,9,6782,3.8,-16,1
CCOc1ccc(NC(=O)c2ccc(S(=O)(=O)N3CCOCC3)cc2)cc1,0,0,-2,3357,0.5,-11,5
COc1cccc(C=NNc2cc(C)nc(-c3ccccc3O)n2)c1O,/,7,-2,/,29,/,13
Cc1ccc(C(=O)NCC(=O)Nc2ccc(C)c(S(=O)(=O)Nc3ccc(Cl)cc3)c2)s1,-10,-4,-4,4653,5.1,-11,6
O=C(Cc1cccc2ccccc12)NN1C(=O)/C(=C\c2cccnc2)SC1=S,0,9,-5,4683,19,-16,11
CCOc1ccccc1OC(=O)c1cc2ccccc2oc1=O,-9,4,10,4137,1.1,-7,6
CC(Oc1ccc(Cl)cc1Cl)/C(N)=N/O (configuration not stated),-8,1,3,4884,1.9,-11,-2
CC(C(=O)Nc1ccc2nccnc2c1)N1C(=O)C2C3C=CC(C3)C2C1=O (configuration not stated),0,13,7,6200,6.7,2,6
O=C(Cn1c(=O)n(Cc2ccc(F)cc2)c(=O)c2ccccc21)NCC1CCCO1 (configuration not stated),3,-5,11,5785,0.8,1,4
COC(=O)N1[C@H](C)C=C[C@]1(Cc1ccccc1)C(=O)O,-1,/,/,2911,/,-31,/
CC(C)(C)N(Cc1ccccc1)C(=O)COC(=O)c1ccc2ccccc2n1,/,10,12,3794,0.8,-21,-1
CCCCCC[N+](C)(C)CC/C=C1/c2ccccc2Sc2ccc(Cl)cc21,-3,/,/,4167,100*,-23,99*
COc1ccccc1NC(=O)CN1C(=O)NC(CC(C)C)C1=O (configuration not stated),-7,8,2,6597,1.9,-28,6
CN1CCN(c2ccc(NC(=O)c3cc4ccccc4o3)cc2)CC1,-7,9,3,4065,2.8,-48,28
COc1ccc(-c2cc(C(=O)Nc3cc(Br)ccc3O)no2)cc1,5,14,14,3714,3.0,-32,14
CCN(CC)S(=O)(=O)c1cccc(-c2nnc(SCc3ncc(-c4ccccc4)o3)n2C)c1,-4,3,2,3736,11,-6,2
COc1cccc(/C=N/NC(=O)N/N=C/c2cccc(OC)c2O)c1O,3,/,/,3489,/,-50,/
Cc1ccc(OCC(=O)NC(=S)Nc2ccc(S(=O)(=O)Nc3cc(C)on3)cc2)c(Br)c1,1,8,7,6128,4.8,-24,-3
O=C(CSc1nnc(-c2cccnc2)n1Cc1ccco1)c1ccc(Br)cc1,14,9,-2,?,5.4,-19,-15
Cc1cc(C)n(C(=O)CNC(=O)C2COc3ccccc3O2)n1 (configuration not stated),-6,9,12,2963,3.4,-7,3
COc1ccc(-c2noc(CCC(=O)N3CCN(c4ccccc4C)CC3)n2)cc1,/,-9,-2,3675,7.1,-12,8
Cc1ccc(OCc2ccccc2C)c([N+](=O)[O-])n1,1,7,-3,3295,4.7,-22,-1
CC(=NNC(=O)C1COc2ccccc2O1)c1ccc(N2CCOCC2)cc1 (configuration not stated),/,9,4,/,8.5,/,2
Cc1ccc(CN2CC(C(=O)Nc3cccc(C)n3)CC2=O)cc1 (configuration not stated),-17,-8,-4,/,0.7,-9,1
